# Bioassay records: PubChem BioAssay, National Center for Advancing Translational Sciences (NCATS)
# ClpP mod: qHTS Assay for Activators of ClpP; AID 651965, 2013; 1.9% of 340,000 active; ATP-dependent Clp protease proteolytic subunit (Bacillus subtilis (strain 168)), P80244; purified B. subtilis ClpP, FRET peptide cleavage, 20 min; Potency, µM (series often up to 57.5 µM), without a hit: at the top dose activity change, negative = active; active = well fitted falling curve with a large enough effect; inconclusive = small, poorly fitted or top-dose-only effect; inactive = no such curve, though single readings can be large or run the other way; further: potency means the concentration at half of the fitted maximal effect; the source files actives as falling curves though it sought activators and does not explain the sign; nearly all actives have a fitted effect of over 65% in size; many hits overshoot -100%
# Target sequence (P80244 whole entry, looked up): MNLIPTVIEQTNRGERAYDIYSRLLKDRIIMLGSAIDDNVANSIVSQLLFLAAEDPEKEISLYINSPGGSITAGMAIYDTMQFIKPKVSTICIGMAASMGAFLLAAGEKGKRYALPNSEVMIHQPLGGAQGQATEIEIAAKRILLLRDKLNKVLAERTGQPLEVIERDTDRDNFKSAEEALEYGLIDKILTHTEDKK
#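 FRET quenching reversal measured ClpP activation: 10 microg/mL B. subtilis ClpP at pH 8 with the FRET-FV decapeptide, read at 430 nm after 320 nm excitation. The 20-min minus 0-min signal was scaled between DMSO/no-enzyme wells and ADEP (5.8 microM final).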
# D2 ag: human D2 receptor agonism in beta-arrestin assay; AID 624465; 0.084% of 360,000 active; activation, % (concentration not given with the values); DiscoveRx PathHunter D2 beta-arrestin, luminescence, 90 min; 100% = 57 uM dopamine signal; P14416; in the data active = activation above about 40%; inconclusive = about 15% to 40%; inactive = below about 15%; further: compound concentration not given in the record; the text of the record calls up to 30% inactive
# Target sequence (P14416 whole entry, looked up): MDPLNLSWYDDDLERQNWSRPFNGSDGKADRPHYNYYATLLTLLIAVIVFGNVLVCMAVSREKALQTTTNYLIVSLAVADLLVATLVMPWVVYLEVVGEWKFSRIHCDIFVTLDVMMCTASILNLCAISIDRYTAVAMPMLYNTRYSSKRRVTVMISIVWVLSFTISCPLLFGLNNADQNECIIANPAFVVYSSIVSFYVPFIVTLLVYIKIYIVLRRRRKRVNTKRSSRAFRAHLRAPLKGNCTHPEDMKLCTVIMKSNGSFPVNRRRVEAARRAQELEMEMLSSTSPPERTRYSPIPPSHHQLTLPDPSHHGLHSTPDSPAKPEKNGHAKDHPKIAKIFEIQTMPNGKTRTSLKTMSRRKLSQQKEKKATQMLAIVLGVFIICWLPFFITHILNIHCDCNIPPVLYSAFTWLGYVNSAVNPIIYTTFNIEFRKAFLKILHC
#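 Agonist mode: compounds alone added to overnight-plated D2 PathHunter cells for 90 min at 37 C, with 57 uM final dopamine (EC100) defining full response. Beta-arrestin recruitment detected by chemiluminescent reagent, read after 1 h at ambient temperature.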
# Sfp inh: blocks B. subtilis Sfp PPTase activity; Q9F4F7; Biochemical Sfp PPTase activity, qHTS; Potency, µM, for the others: max response, negative = inhibition, actives largely listed as inhibitors; 3.5% of 310,000 active; AID 1490; active means well fitted inhibition curve with a large enough effect; inconclusive means small, poorly fitted or top-dose-only effect, or another doubt; inactive means no such curve, though single readings can be large or run the other way;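 further: the enzyme is Sfp with the accession as filed and its product quenches rhodamine fluorescence; potency means the concentration at half of the fitted maximal effect; 0% = enzyme reaction without inhibitor and -100% = no enzyme wells; top concentration of the series not given in the record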
#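 Step 1, compound plus 15 nM Sfp-PPTase, 15 min, room temperature. Step 2, add rhodamine-CoA (5 uM) and BHQ-2-YbbR (12.5 uM). Step 3, read 525/598 nm fluorescence at 0 and 30 min.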
# Menin MLL FP FL: inhibitors of human menin-MLL interaction, wild-type MLL peptide; Fluorescence polarization, fluorescein-MLL peptide displacement from menin; AID 1766; 290,000 tested, under 10 active; FP activity change, % at 61.4 µM; inconclusive = falling polarisation curve, or a change in total fluorescence; inactive = total fluorescence flat and polarisation flat or rising; no compound was filed as active; the % refers to the polarisation; negative = inhibition;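 further: % of control where 0% means no effect; inhibitors lower the polarisation; unlabelled MLL peptide was the positive control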
# gsp ag: activates gsp, the McCune-Albright syndrome mutation; 0.13% of 340,000 active; gsp mutant cells, cAMP HTRF, 30 min; control for the full effect not named in the record; Potency, µM (doses to about 76.9 µM), inactives show top-dose activation (cAMP increase), usual class: activators; active = well fitted activation curve with a large enough effect; inconclusive = small, poorly fitted or top-dose-only effect, or another doubt; inactive = no such curve, though single readings can be large or run the other way; cell line not stated here;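 further: phosphodiesterase inhibitor Ro 20-1724 added with compounds to block cAMP breakdown; potency means the concentration at half of the fitted maximal effect; nearly all actives have a fitted effect of over 60% in size; about a fifth of the inactives were tested at one dose only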
#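 Cells stably selected in G418 were plated at 2000/well, grown 16-24 hr, then given compounds in DMSO with the PDE inhibitor […] (300 uM solution added) for 30 min at 37C; cAMP was read by HTRF.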
# PINK1 modulator: changes PINK1 expression | Potency, µM (titrated, usually from 76.6 µM), inactives show at the top dose activation (PINK1 increase), usual class: activators | 0.2% of 410,000 active | PINK1 immunofluorescence, high-content cytometry, 24 h; active = well fitted activation curve with a large enough effect; inconclusive = small, poorly fitted or top-dose-only effect; inactive = flat fitted curve, though single readings scatter; cell line not stated here;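 further: potency means the concentration at half of the fitted maximal effect; % of control where 0% means no effect; nearly all actives have a fitted effect of over 65% in size; a mitochondrial uncoupler was the plate control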
#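 Measures PINK1 amount and localization on or inside mitochondria by immunofluorescence. Stable cells get compounds at 5 concentrations for 24 hours before fixation and staining; CCCP controls included.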
# gsp antagonist: gsp mutant antagonism. gsp-mutant cells, cAMP HTRF, 30 min; control for the full effect not named in the record. Potency, µM (top dose mostly 76.9 µM), without a hit: top-dose activity change, negative = inhibition, hits mostly inhibitors. 0.4% of 340,000 active. AID 624288; active = falling curve of any shape with a large fitted effect; inconclusive = falling curve, mostly with a smaller effect; inactive = flat or rising curve; cell line not stated here;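 further: intracellular cAMP measured with PDE inhibitor Ro 20-1724 present during compound exposure; potency means the concentration at half of the fitted maximal effect; on the % scale 0 is the no-effect control and ±100 the full control effect; nearly all actives have a fitted effect of over 65% in size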
#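 HTRF cAMP measurement after 30 min RT detection following 30 min, 37C compound treatment alongside […] (added as 300 uM solution) in G418-selected cells seeded at 2000/well and grown 16–24 h.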
# The depositor's hits bear a star; ? = inconclusive; nt = no result given; & = joins results of further samples; [ ] = remark or other dose.
SMILES,ClpP mod,D2 ag,Sfp inh,Menin MLL FP FL,gsp ag,PINK1 modulator,gsp antagonist
Cc1ncsc1C(=O)N1CCCC(C(=O)c2ccc3ccccc3c2)C1 (configuration not stated),?,0.3,12%,-1.8,-1%[15.4 µM],-0.3%,-11%
Cc1cc(C)n2nc(C(=O)NCc3ccccc3)cc2n1,25µM*,-2.0,?,0.3,15%,2.6%[38.3 µM],9%
Cc1ccc(NC(=O)COC(=O)c2ccc(S(=O)(=O)NCc3ccco3)cc2)cc1,-2.4%,-0.9,nt,nt,9%,0.5%,-4%
O=C(c1ccc(F)cc1)N1CCN=C1c1ccccc1,-4.9%,0.2,-1%,5.9,-74%[inhibitor],5.6%,13%
C=C(C)c1cccc(C(C)(C)NC(=O)Nc2nnc(C(C)C)s2)c1,0.3%,-3.3,-3%,6.0,13%,0.2%,-15%
CSc1nnc(C(C)(C)C)c(=O)n1/N=C/c1ccc(C(C)C)cc1,nt,2.7,-4%,0.5,-1%,?,-5%
CC(C)CC1C(=O)N(Cc2cn(CC3CCCCC3)nn2)CCS(=O)(=O)N1Cc1ccc(-c2ccc(Cl)c(Cl)c2)cc1 (configuration not stated),-1.6%,-8.0,nt,nt,-59%,1.2%,nt
O=C(COC(=O)c1ccc(Br)o1)Nc1ccc2[nH]c(=O)[nH]c2c1,2.1%,-5.0,nt,nt,13%,7.5%,0%
CCN(CC)S(=O)(=O)c1ccc(O)c(NC(=O)c2ccc(N3CCOCC3)c([N+](=O)[O-])c2)c1,1.1%,-11,?,5.4,-1%[15.4 µM],4.1%,0%
CCOC(=O)/C(C#N)=C/c1cc2cc(C)c(C)cc2nc1Cl,nt,1.8,?,4.5,-8%[15.4 µM],7.3%,-6%
N/C(=N\OC(=O)Cc1ccccc1[N+](=O)[O-])c1ccccn1,nt,1.2,-30%,4.1,-4%[15.4 µM],2.2%,-1%
CCC(C)CCCCCCCCCCC(=O)O (configuration not stated),2.3%,-5.2,nt,nt,nt,0.3%,4%
COc1ccccc1OCC(=O)Nc1ccccn1,1.3%,0.1,1%,0.4,-7%,0.4%,7%
Clc1ccccc1Nc1nc(NCC2CC2)nc2ccsc12,4.5%,-2.5,nt,nt,nt,15%,nt
CC(C)C(NC(=O)C(Cc1ccc(O)cc1)NC(=O)C(NC(=O)C(F)(F)F)C(C)C)C(=O)O (configuration not stated),nt,nt,12%,-1.4,nt,0.1%,nt
Cc1ccc(OCC(O)CNCc2ccccc2)cc1C (configuration not stated),nt,-4.5,11%,-0.7,0%[15.4 µM],10%,4%
CCOC(=O)c1ccc(NC(=O)c2nc[nH]c2C(=O)N[C@@H](C)CO)cc1,-0.7%,-2.1,nt,nt,-35%[inhibitor],0.4%,nt
CN(C)c1nc(NCc2ccccc2)nc(SCC(=O)Nc2ccccc2)n1,-1.0%,5.1,8%,1.6,-1%,-2.8%[38.3 µM],-7%
O=S(O)OC1CS(=O)(=O)CC1c1ccccc1 (configuration not stated),-1.7%,-5.8,7%,-8.1,3%,3.3%,8%
CC(NC(=O)NC1CCCCC1)c1ccc2c(c1)OCO2 (configuration not stated),-1.6%,-2.8,-12%,1.3,-52%[inhibitor],-0.6%,3%
COc1ccc(CNC(=O)c2cncc(Br)c2)cc1,nt,-5.3,13%,2.7,-62%[inhibitor],1.5%,3%
NC(Cc1ccc(Cl)cc1)c1csc(Nc2nccc(C(F)(F)F)n2)n1 (configuration not stated),0.9%,9.7,nt,nt,nt,-1.4%,nt
Cc1ccc(S(=O)(=O)NC(=O)Nc2ccc(F)c(F)c2)cc1,nt,-4.0,-6%,?,-1%[15.4 µM],-1.2%,-1%
CC(=O)N1CN(CCCn2ccnc2)Cc2c1sc1c2CCCC1,-1.5%,-0.6,22%,3.3,-1%,-1.7%,-2%
CCOC(=O)CC1NC(=O)c2ccccc21 (configuration not stated),-1.8%,0.2,18%,0.1,?,0.0%,5%
CCC(=O)c1ccc(OCC(=O)Nc2ccc(N3CCCCC3)cc2)cc1,0.0%,1.7,nt,nt,18%,2.0%,-5%
O=C(NCc1cccs1)c1cc(C2CC2)on1,1.5%,-3.4,13%,3.3,-66%[inhibitor],3.8%,9%
CC(C)CNC(=S)NC1CCCC1,-0.4%,1.1,-4%,5.6,27%,2.6%,-3%
CC(C)C12NC(=O)NC(=O)N1CCS2 (configuration not stated),-2.8%,3.2,nt,nt,11%,5.4%,8%
COc1ccc(CNc2nc(-c3ccccc3OC)nc3ccccc23)c(OC)c1,nt,nt,?,-3.5,nt,?,nt

# One compound at a time (already shown). Values in the order: ClpP mod, D2 ag, Sfp inh, Menin MLL FP FL, gsp ag, PINK1 modulator, gsp antagonist
# Cc1ccc(OCC(O)CNCc2ccccc2)cc1C (configuration not stated) as listed: nt, -4.5, 11%, -0.7, 0%[15.4 µM], 10%, 4%
# CCOC(=O)c1ccc(NC(=O)c2nc[nH]c2C(=O)N[C@@H](C)CO)cc1 as listed: -0.7%, -2.1, nt, nt, -35%[inhibitor], 0.4%, nt

# Continuation.
SMILES,ClpP mod,D2 ag,Sfp inh,Menin MLL FP FL,gsp ag,PINK1 modulator,gsp antagonist
CCOC(=O)c1c(NC(=O)C2C3C=CC(CC3)C2C(=O)O)sc(C)c1C (configuration not stated),28µM*,-5.6,10%,4.6,?,1.5%,11%
CC(C)C[C@H](NC(=O)C1(c2ccccc2)CCN(C(=O)OC(C)(C)C)CC1)C(=O)N1CCC[C@H]1C(=O)O,0.1%,2.2,23%,nt,-25%,-0.9%,?
Cn1c(CC(=O)Nc2ccccc2)c(Sc2ccccc2)c2ccccc21,-0.8%,-4.0,22%,5.9,-18%,5.9%,-9%
O=C(CSc1nc(-c2ccccc2)c(-c2ccccc2)[nH]1)Nc1nccs1,-13%,0.4,9%,0.4,-1%,3.9%[38.3 µM],-18%
Cc1ccc(S(=O)(=O)CCC(=O)c2ccc(F)cc2)cc1,-1.1%,-2.1,6%,3.2,-33%[inhibitor],-0.2%,0%
Cc1cc(N2CCN(C(=O)OC(C)(C)C)CC2)n2ncnc2n1,-3.7%,0.7,0%,-3.7,19%,-1.1%,-5%
CCOc1ccc(C(=O)C2CCN(CC(=O)Nc3nccs3)CC2)cc1,nt,-0.2,10%,4.2,-31%[inhibitor],-2.6%,-5%
CC1CCN(S(=O)(=O)c2ccc3c(c2)N(CC(=O)NCCCN2CCCCC2)C(=O)CS3)CC1,-1.2%&1.1%,-4.4,6%,nt,?,-1.9%&-0.3%,13%
O=C(Nc1ccc(-c2cn3c(n2)SCC3)cc1)c1ccc2ccccc2n1,22µM*,4.3,-4%,1.0,-3%[15.4 µM],8.7%,?
Cc1ccc(C(=O)NNC(=O)CSc2nnc(-c3ccncc3)n2C)cc1,-0.9%,-1.8,9%,2.7,?,0.7%,7%
FC(F)(F)C1=NNC(c2ccc3ccccc3c2)=NN1,-23%,-3.6,nt,nt,12%,6.9%,nt
COc1cc(C(O)c2nc(-c3ccccc3)cs2)ccc1F (configuration not stated),-7.1%,6.8,nt,nt,nt,8.8%,nt
COc1cc2cc(C(=O)Nc3ccc4c(c3)OCCO4)[nH]c2cc1OC,1.4%,-1.6,1%,nt,-41%[inhibitor],2.5%,8%
COc1ccc(F)cc1S(=O)(=O)NCc1cc(=O)n(C)c(=O)n1C,0.8%,1.7,17%,nt,20%,-0.4%,8%
CCCCn1c(N)c(N(CCC(C)C)C(=O)c2cccc(S(=O)(=O)N3CCN(C)CC3)c2)c(=O)[nH]c1=O,1.0%,-5.1,nt,nt,10%,2.5%,8%
Cc1cccc(/C=C2\CCC(=C3SCCCS3)C2=O)c1,0.3%,-0.1,-15%,0.8,35%,4.2%,-2%
CC(C)[C@H](NC(=O)c1ccc(Cl)cc1Cl)C(=O)NNC(=O)c1ccco1,nt,-2.0,nt,nt,-1%,-0.1%,-1%
Cc1cc(NC(=O)CN2C(=O)NC3(CCCCCC3)C2=O)ccc1Br,-0.4%,-1.9,nt,nt,-17%,2.3%,3%
CC(=O)OCC1(C)CN(c2ccccc2)N(C(=O)c2ccc(C(C)(C)C)cc2)C1=O (configuration not stated),0.1%,-5.0,-11%,0.1,-15%,0.3%,-16%
COc1ccc(N(CC(=O)Nc2ccc(OC)cc2OC)S(=O)(=O)c2ccccc2)cc1,-4.4%,1.6,10%,4.8,10%[15.4 µM],1.8%,-4%
Oc1cccc(NC(=S)N=Nc2c(O)[nH]c3ccccc23)c1,nt,-7.3,?,-3.9,-13%[15.4 µM],0.0%,-13%
O=C(Nc1ccc(Cl)cn1)C1CCCN1S(=O)(=O)c1ccc(Cl)cc1 (configuration not stated),0.7%,-2.1,-11%,2.4,11%,-3.0%[38.3 µM],-24%
CC(=O)Nc1ccc(S(=O)(=O)NCCc2ccccc2)cc1,-0.4%,1.1,-7%,3.6,14%,27%[38.3 µM],-1%
CC(C)=CCC/C(C)=C/CNC(=O)C[C@H]1C[C@H](C(=O)N2CCCCC2)[C@@]2(C)c3[nH]c4cc(CCC(=O)N(C)C)ccc4c3CCN2C1=O,1.4%,4.7,nt,nt,nt,11%,-14%
O=[N+]([O-])c1ccc2c(c1)C(=Nc1ccccc1)c1ccccc1-2,nt,7.4,nt,nt,-17%,2.1%,-10%
CC/C(C)=N/Oc1nc(C)cc(C)n1,0.9%,-3.1,-20%,2.9,23%,2.2%,6%
Cc1cc(C)c2nc(-c3ccccn3)cc(C(=O)Nc3cc(C)on3)c2c1,-28%,0.1,-1%,-8.6,0%,6.0%,-5%
O=C1NC(=O)c2c(NC(=O)C3CCCO3)cccc21 (configuration not stated),16µM*,-2.4,-5%,5.7,-4%,8.6%[38.3 µM],9%
CCCCNC(=S)NNC(=O)CCn1nc(C)c(Br)c1C,-1.5%,-15,6%,3.8,-50%[inhibitor],6.3%[38.3 µM],-3%
CCCCn1c(O)c2n(c1=O)Cc1ccccc1N=C2c1ccccc1,-0.1%,5.5,nt,nt,nt,0.4%,nt
